Ba CapD inh: CapD enzyme inhibition | purified CapD enzyme, fluorescence intensity read-out; hits give low values; some hits fall short of the stated cut | z-score (no concentration beside the values) | hit rate 0.23% among 140,000 | AID 492967;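 active = z-score under -4 in either of two replicates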;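 also: stock transfer was 100 nL into about 40 µL; score is relative to mean and spread of the plate; one replicate is shown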
AID504770: E. coli YBA685 growth inhibition, screen for V. cholerae RctB inhibitors; hit rate 0.27% among 130,000; AID 504770; E. coli YBA685 rctB-dependent plasmid, OD600 growth, 3 h; hits give low values; z-score (no concentration beside the values);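 active = z-score under -2 on both plates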;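 also: wells of about 30 µL received 100 nL stock; score is relative to mean and SD of the test wells; the first replicate is given; strong numbers were not always called active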
Starred values were filed as active, the others as inactive; · = not tested or not shown; & = joins results of further samples.

SMILES	Ba CapD inh	AID504770
CC(=O)OCC(=O)Nc1ccccc1	·	1.55
O=C(/C=C/c1c(Cl)nc2sccn12)Nc1ccc(F)cc1	·	-0.7
CCc1ccccc1N(CC(=O)N1CCc2ccccc2C1)S(C)(=O)=O	·	1
Cc1nonc1NC(=O)Nc1cccnc1	0.72	-2.05*
Cc1cccc(N2C(=O)c3ccc(C(=O)Nc4c[nH]c(=O)[nH]c4=O)cc3C2=O)c1C	-0.67	-1.05
CC(=O)Nc1ccc(S(=O)(=O)N2CCN=C2SCc2ccc(C)cc2)cc1	-0.165	0.7
CC(C)(C)c1ccccc1NC(=O)c1ccc2c(c1)SC1=NS(=O)(=O)CCN12	·	-1.7
COC(=O)C1=C(CS(=O)(=O)c2ccccc2)NC(=O)NC1c1ccccc1 (configuration not stated)	0.21	0.25
Cn1cc(NC(=O)NCCc2ccsc2)c2ccccc2c1=O	31.7	0.45
Nc1nonc1C(=O)N1CCCCC1	0.3	-0.35
CCc1ccc(NC(=O)CN(C)S(=O)(=O)c2cc(Br)cnc2N)cc1	-0.67	0.15
c1ccc(C2(c3ccccc3)OC3c4ccccc4OCN3c3ccccc32)cc1 (configuration not stated)	-0.105	·
CN(Cc1ccccc1)C(=O)c1sc2ccccc2c1Cl	-0.185	-0.15
Cc1ccc(N/C(N)=N/c2nc(C)cc(=O)[nH]2)c(C)c1	-0.29	-0.4
CCOC(=O)c1ccc(NC(=O)CSc2cn(C)c3ccccc23)cc1	-0.425	0.2
O=C(Nc1cccc(Cl)c1)OCC#Cc1ccc(-c2ccccn2)s1	9.25	1
O=C(NCCN1CCCC1)c1ccc(F)cc1	-0.395	-0.45
O=C(/C(=C\c1ccc(F)cc1)n1ccccc1=O)N1CCCC1	·	-0.2
O=C1C2C3CCC(C3)C2C(=O)N1c1cc(C(F)(F)F)ccc1Cl (configuration not stated)	-0.245	·
NC(=O)c1ccc(NC(=O)CSC(=O)c2ccccc2)cc1	-0.875	-0.6
COc1ccccc1Sc1ncc(-c2cccc(C(F)(F)F)c2)cc1C#N	-0.22	·
CCSc1nc2ccccc2c(=O)n1CC	·	1.7
Cc1ccc2cc3c(nc2c1)N(c1ccc(C(=O)O)cc1)CC3	41.7	-0.85
O=C(NCc1ccccc1)C1CC1(c1ccccc1)c1ccccc1 (configuration not stated)	0.675	1.6
CN1/C(=C\C(=O)c2ccccc2)Sc2ccccc21	2.79	-1
N#CCSc1nc2cc(C(=O)NCc3ccccc3)ccc2c(=O)n1CCc1ccccc1	3.65	-0.5
CN1CCC(N(C)C(=O)COc2ccc(S(=O)(=O)N3CCOCC3)cc2)CC1	·	-0.4
CC(C)N(C(=O)Cn1c(=O)n(-c2ccc(F)cc2)c(=O)c2oc3ccccc3c21)C(C)C	·	0.45
Cc1cc(N)n2ncnc2n1	·	-0.45
CCOC(=O)C1CCN(C(=O)c2ccccc2)CC1	0.755	-0.4
Cc1ccc(C)n1-c1nnc(N2CCC(C(=O)O)CC2)s1	0.175	0.25
CCC(C)(C)c1ccc(S(=O)(=O)N2CCC3(CC2)C(=O)NCN3c2ccccc2)cc1	-0.29	·
Cc1ccccc1NC1=NC2(CCCCC2)N=C(N)N1	-0.6	-0.35
COc1cccc(C2CC(C(F)(F)F)n3ncc(C(=O)O)c3N2)c1 (configuration not stated)	-1.55	-0.25
O=C(Oc1ccc2c(c1)OCO2)c1cccc(S(=O)(=O)N2CCCC2)c1	·	-1.35
CNC(=O)NC(=O)C(Sc1nnc2sc3ccccc3n12)c1ccccc1 (configuration not stated)	·	0.2
CCOC(=O)c1c(O)c(Cl)c(C)[nH]c1=O	-0.35	-0.75
Nc1cnn2c1N=NC2SCC(=O)Nc1nnc(SCC(=O)Nc2ccccc2)s1 (configuration not stated)	-0.095	·
O=C(Cn1c(=O)c2sccc2n(Cc2cccc(Cl)c2)c1=O)NCc1ccco1	-0.385	0.7
O=S(=O)(Nc1ccccc1Oc1ccc(Cl)cc1Cl)c1ccc(Cl)c(Cl)c1	0.165	·
CCOC(=O)C1CCCN(C(=O)c2sc3ncn(CC(=O)Nc4ccc(C)c(Cl)c4)c(=O)c3c2C)C1 (configuration not stated)	-0.235	·
COC(=O)c1cn(-c2ccccc2)nc1-c1cccs1	·	-0.55
O=C(CN1C2=NCCN2c2ccccc21)C12CC3CC(CC(C3)C1)C2	·	-1.4
CC(=O)OC1(C#CCN2CCCC[C@H]2c2cccnc2)CCCCC1	-0.76	-0.85
Cc1ccccc1CN(Cc1ccco1)C(=O)c1cc2ccccc2oc1=O	·	-0.5
CCN1CCCC1CNS(=O)(=O)c1cc(C(F)(F)F)cc(C(F)(F)F)c1 (configuration not stated)	-1	·
CCOC(=O)C1=C(O)/C(=C\c2ccccc2)N=C1C	-2.65	-1.05
COc1ccccc1N1CCN(c2ncnc3nc[nH]c23)CC1	-0.45	-0.7
COc1ccc(C=C(C#N)C#N)cc1Br	-0.58	0
COC(=O)CNc1ccccc1C(=O)O	109	-0.9
COCC1=C(C(=O)OC)C(c2ccc(F)c(Br)c2)C(C#N)=C(N)O1 (configuration not stated)	-0.735	·
O=C(Nc1cccnc1)c1cn(-c2ccccc2)nc1-c1cccs1	·	0.1
Cc1cc(C)cc(NC(=O)N2CCN(Cc3ccncc3)CC2)c1	0.67	-1.45
CN(C)CCCNc1cccc(Cl)c1C#N	63.7	·
CCOC(=O)C1CCCN(S(C)(=O)=O)C1 (configuration not stated)	-0.68	0.45
CN1CCN(c2nc3c(c(=O)n(C)c(=O)n3C)n2CC(O)COc2ccc(Cl)cc2)CC1 (configuration not stated)	-0.055	·
COc1cccc(OC)c1OC(=O)C(C)Oc1ccc(C)cc1 (configuration not stated)	·	0.5
COc1ccc(CCn2c(C)c3c(=O)n(-c4nc5ccccc5s4)[nH]c3cc2=O)cc1	-0.47	0.6
Cc1ccccc1NC(=O)COc1cccc(Br)c1	0.695	-1.15
CC(=O)O/N=C/c1c(Nc2ccc(C)cc2)nc2c(C)cccn2c1=O	·	-1.15

For reference, some entries already given.
SMILES	Ba CapD inh	AID504770
CN(C)CCCNc1cccc(Cl)c1C#N	63.7	·
CCOC(=O)C1CCCN(S(C)(=O)=O)C1 (configuration not stated)	-0.68	0.45
CN1CCN(c2nc3c(c(=O)n(C)c(=O)n3C)n2CC(O)COc2ccc(Cl)cc2)CC1 (configuration not stated)	-0.055	·
COc1cccc(OC)c1OC(=O)C(C)Oc1ccc(C)cc1 (configuration not stated)	·	0.5
COc1ccc(CCn2c(C)c3c(=O)n(-c4nc5ccccc5s4)[nH]c3cc2=O)cc1	-0.47	0.6
Cc1ccccc1NC(=O)COc1cccc(Br)c1	0.695	-1.15
CC(=O)O/N=C/c1c(Nc2ccc(C)cc2)nc2c(C)cccn2c1=O	·	-1.15

More structures:
SMILES	Ba CapD inh	AID504770
CSc1ccccc1NC(=O)COC(=O)C12CC3CC(CC(C3)C1)C2	-0.28	-0.15
N#CC1=C(N)C(C#N)(C#N)C(c2cccc(Br)c2)C2CN(Cc3ccccc3)CC=C12 (configuration not stated)	0.155	·
O=C(NCCN1CCN(C(=O)c2ccc(Br)cc2)CC1)C(=O)NCc1ccco1	-0.225	·
CN=Cc1c[nH]c2ccccc12	-0.36	-0.45
CN(CC(=O)Nc1ccc(F)c(F)c1F)C(=O)c1cccc(C(F)(F)F)c1	·	-0.5
COc1ccc(-n2nc(C(=O)NCC(=O)NC3CCCCCC3)c3ccccc3c2=O)cc1Cl	0.255	·
CCOC(=O)c1ccc(N(C)C)c2c(N(C)C)cccc12	0.025	-0.5
CCSc1cnn(-c2ccccc2)c(=O)c1Cl	-0.455	1.7
Cc1ccc(CN2CCN(/N=C\C=C\c3ccccc3)CC2)cc1	-0.015	-0.55
O=C(Nc1ccccc1C(=O)NC1CCCC1)c1cn2ccccc2n1	·	-0.1
CCc1cccc(NC(=O)/C=C/c2ccco2)c1	-1.94	-1.05
CC(=O)C1=CN=C(c2ccc(Cl)cc2)SC1	-1.16	·
Cc1ccc(C(O)(C(=O)NN(C(=O)c2cccnc2Cl)c2ccccc2)c2ccc(C)cc2)cc1	0.12	·
S=c1cc[nH]c(=S)n1-c1nc(-c2ccccc2)sc1-c1ccccc1	-0.345	-1.65
COc1cc(C2CS(=O)(=O)CS(=O)(=O)C2)ccc1O	0.36	-0.2
FC(F)(F)c1nc(NCC(c2ccco2)N2CCCCC2)c2ccccc2n1 (configuration not stated)	·	-3.5
O=C1CCCN1CC(CN1CCOCC1)Sc1nnnn1-c1ccccc1 (configuration not stated)	-0.655	-0.3
CCCCN(CC)C(=O)Cc1c(C(=O)O)[nH]c2ccc(Cl)cc12	0.14	0.5
O=C(CSc1n[nH]c(-c2ccco2)n1)c1ccc(Cl)cc1	-0.015	·
NS(=O)(=O)c1cc(C(=O)Nc2cccc(C(F)(F)F)c2)ccc1F	0.245	1.15
CC(=O)NC(CCC(=O)O)C(=O)O (configuration not stated)	-0.335	·
N#Cc1c(-c2ccccc2)noc1/C=C/Nc1ccccc1	-0.35	1.6
CC1=C(c2ccc(C)cc2)S(=O)(=O)NC1=NCCN1CCOCC1	-1.53	1.9
COc1cccc(N=Cc2c[nH]c3ccccc23)c1	6.77	-0.75
CC(C(=O)Nc1ccc2c(c1)OCCO2)n1cc(S(=O)(=O)N2CCCC2)ccc1=O (configuration not stated)	·	1.4
CCN(CC)CCSc1nc2ccccc2c(=O)n1-c1ccc(OC)cc1	-0.48	-0.6
Cc1ccc(NC(=O)C(C)Sc2n[nH]c(-c3ccccc3O)n2)cc1 (configuration not stated)	·	-0.4
Cc1ccc(NC(=O)CC(C(=O)O)N(C)C)cc1 (configuration not stated)	0.385	-0.95
N/C(=N\c1nc2ccccc2s1)NC(=O)c1ccccc1N	8.79	0.75
Cc1ccc(C2=CC(=O)C=CC2=O)cc1C	2.52	-0.95
CN=c1scc(-c2cc(C)n(CC3CCCO3)c2C)n1C (configuration not stated)	·	-1.3
CCCc1ccc(OCc2nc(-c3ccc(NC(=O)c4cccs4)cc3)no2)cc1	1.46	·
COc1cccc(/C=C2\SC(=S)C(N)C2=O)c1OC (configuration not stated)	-2.92	0.25
Cc1[nH]c2ccccc2c1C(=O)CN1C(=O)C2CC=CCC2C1=O (configuration not stated)	·	-0.1
CCCN=C1NN=C(c2cc(C)n(Cc3ccc4c(c3)OCO4)c2C)CS1	·	-1.25
CCc1cc(=O)[nH]c(NC2CCN(C(=O)N3c4ccccc4Sc4ccccc43)CC2)n1	·	0.7
CCOc1ccc(-n2nnnc2-c2ccccn2)cc1	-2.2	1
CCc1ccc(C(=O)OCC(N)=O)cc1	·	0.7
COc1ccc(NC(=O)c2ccc(N3CC4CC(C3)c3cccc(=O)n3C4)c(NC(=O)c3ccccc3Cl)c2)cc1OC (configuration not stated)	-0.09	·
O=C(CSc1nnc(-c2cccs2)o1)NC1CCCCC1	-0.155	0.25
Cc1ccc(S(=O)(=O)Oc2ccc(C)cc2Br)cc1	0.11	·
CC1CCCN(C(=O)CSCC(=O)N=c2sc3ccccc3n2C)C1 (configuration not stated)	-0.245	0.15
CCCN(CC(=O)Nc1ccccc1C)C(=O)CSc1ccc(S(=O)(=O)N2CCOCC2)cn1	·	-0.05
Cc1ccc(C(=O)CCC(=O)Nc2ccc(Br)c(C)c2)cc1	-1.29	-0.95
CC1CCN(S(=O)(=O)c2ccc(NC(=O)c3ccc4c(c3)OCCO4)cc2)CC1	0.02	0.8
CCS(=O)CCSc1nc(-c2ccc(Br)cc2)cc(-c2ccccc2)c1C#N (configuration not stated)	0.15	0
CC(CC(=O)NCCN1C(=O)S/C(=C\c2cccs2)C1=O)n1ccnc1 (configuration not stated)	·	-0.3
CN(C)C=NC(=O)c1cccc(Br)c1	·	0.15
CC1=C(C)CS(=NC(=O)c2ccccc2)N(C(=O)c2ccccc2)C1 (configuration not stated)	·	-0.65
CN(C(=O)c1cc2c(=O)oc3ccccc3c2s1)c1ccccc1Cl	0.44	·
C=CCn1c(=NC(=O)CC)sc2cc(S(N)(=O)=O)ccc21	·	-1
CCC(=O)Nc1cccc(C(=O)N/N=C/c2cccc(F)c2C)c1	0.23	·
COc1ccc(-c2nc(-c3ccc4c(c3)sc3cc(-c5[nH]c(-c6ccc(OC)cc6)nc5-c5ccccc5)ccc34)c(-c3ccccc3)[nH]2)cc1	0.035	·
Clc1ccc(COC(Cn2ccnc2)c2ccc(Cl)cc2Cl)cc1 (configuration not stated)	-0.245&0.13	0.9
CCn1c(C)cc(-c2csc(N)n2)c1C	·	0.15
Cc1cc(C)n(CCC(=O)NCCN2CCN(c3cc(Cl)ccc3C)CC2)n1	-1.69	1
CN1N=C2c3ccccc3CCCC2C1c1cccs1 (configuration not stated)	10.8	-0.1
O=C1CCCC(=O)C1CC1C(=O)CCCC1=O	0.825	0.05
c1ccc2c(c1)N(CN1CCCC1)CC21OCCO1	0.2	-1.45
Brc1ccccc1-c1ccc(/C=N/N2CCOCC2)o1	·	-0.7

Single records, as listed above.
`CC1CCN(S(=O)(=O)c2ccc(NC(=O)c3ccc4c(c3)OCCO4)cc2)CC1` is entered as Ba CapD inh: 0.02; AID504770: 0.8
`Clc1ccc(COC(Cn2ccnc2)c2ccc(Cl)cc2Cl)cc1` (configuration not stated) is entered as Ba CapD inh: -0.245&0.13; AID504770: 0.9
`CCCN(CC(=O)Nc1ccccc1C)C(=O)CSc1ccc(S(=O)(=O)N2CCOCC2)cn1` is entered as Ba CapD inh: ·; AID504770: -0.05

2 of the compounds above, with bars between the fields:
SMILES | Ba CapD inh | AID504770
Cc1ccc(S(=O)(=O)Oc2ccc(C)cc2Br)cc1 | 0.11 | ·
CC(CC(=O)NCCN1C(=O)S/C(=C\c2cccs2)C1=O)n1ccnc1 (configuration not stated) | · | -0.3

These rows are one share of the data, so the mix of outcomes need not match the whole.
